Assay outcomes: PubChem, Johns Hopkins Ion Channel Center
KCNQ2 enhance – potentiators of rat KCNQ2 potassium channel; Potassium voltage-gated channel subfamily KQT member 2 (Rattus norvegicus), O88943; CHO-K1 KCNQ2, FluxOR thallium flux fluorescence; hits give high values; B-score at 10 µM; 310,000 compounds, 0.54% hits;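 active means fluorescence ratio B-score at least 3 SD of library B-scores, with initial fluorescence B-score within 3 SD, cut at about 5.3 in these data; same plate scores as AID 2156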;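 further: B-score of peak minus minimum over baseline fluorescence ratio after K+ and Tl+ stimulus; positive B-score means potentiation of KCNQ2 with more thallium influx and brighter signal; only the inactives scoring about 0 or higher are listed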
Target sequence (O88943 whole entry, looked up): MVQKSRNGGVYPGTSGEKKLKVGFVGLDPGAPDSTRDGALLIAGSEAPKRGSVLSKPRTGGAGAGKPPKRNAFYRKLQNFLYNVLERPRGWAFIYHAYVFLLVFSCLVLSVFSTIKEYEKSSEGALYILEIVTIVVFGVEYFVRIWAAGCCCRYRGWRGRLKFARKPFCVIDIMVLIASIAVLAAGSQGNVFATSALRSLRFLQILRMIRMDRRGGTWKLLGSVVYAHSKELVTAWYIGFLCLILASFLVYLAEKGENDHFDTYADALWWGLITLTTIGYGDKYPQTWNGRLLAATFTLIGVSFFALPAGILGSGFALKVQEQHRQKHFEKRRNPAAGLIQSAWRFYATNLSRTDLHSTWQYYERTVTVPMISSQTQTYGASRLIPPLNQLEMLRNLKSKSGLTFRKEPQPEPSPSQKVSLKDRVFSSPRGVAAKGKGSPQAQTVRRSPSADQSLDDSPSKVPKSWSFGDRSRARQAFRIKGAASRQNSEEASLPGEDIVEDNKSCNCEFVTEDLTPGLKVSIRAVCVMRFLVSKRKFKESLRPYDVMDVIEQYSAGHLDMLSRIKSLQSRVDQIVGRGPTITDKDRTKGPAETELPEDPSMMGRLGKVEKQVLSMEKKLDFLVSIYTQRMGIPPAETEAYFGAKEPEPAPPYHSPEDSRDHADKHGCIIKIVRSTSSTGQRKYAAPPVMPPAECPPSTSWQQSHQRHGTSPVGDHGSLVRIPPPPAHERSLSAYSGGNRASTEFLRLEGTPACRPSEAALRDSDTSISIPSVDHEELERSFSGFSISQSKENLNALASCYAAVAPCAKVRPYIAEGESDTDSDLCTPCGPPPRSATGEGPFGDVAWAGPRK
KCNQ2 enhance baseline – also measured in KCNQ2 enhance; calls as there; B-score; compound at 10 µM; measured here: initial fluorescence intensity artifact check;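 brightness before thallium and not channel activity; 0 = typical well and far values either way flag optical interference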
* = called active by the depositor. This is a subset. The share of hits here may be higher or lower than overall.

Start of the listing, in advance:
entry	structure	KCNQ2 enhance	KCNQ2 enhance baseline
1	CCCn1c(-c2ccc[nH]c2=O)nc2cc(C)c(C)cc21	0.17	0.76
2	CCOc1cc(N2CCOCC2)c(OCC)cc1NC(=O)[C@H](C)NC(=O)c1ccco1	1.6	-0.42
3	COc1ccc(CCN2C(=O)N(c3ccc(OC)cc3)C(=O)C2CC(=O)Nc2ccc(OC)cc2)cc1 (centres undefined)	0.81	-0.77

The listing (from the top)
entry	structure	KCNQ2 enhance	KCNQ2 enhance baseline
1	CCCn1c(-c2ccc[nH]c2=O)nc2cc(C)c(C)cc21	0.17	0.76
2	CCOc1cc(N2CCOCC2)c(OCC)cc1NC(=O)[C@H](C)NC(=O)c1ccco1	1.6	-0.42
3	COc1ccc(CCN2C(=O)N(c3ccc(OC)cc3)C(=O)C2CC(=O)Nc2ccc(OC)cc2)cc1 (centres undefined)	0.81	-0.77
4	CCOCCN(C(=O)c1ccccc1Cl)c1ccccc1	1.6	1.4
5	Cc1ccc(C(C)n2cc(C(=O)NCc3ccncc3)nn2)cc1 (centres undefined)	1.2	-0.31
6	O=C(c1ccc([N+](=O)[O-])o1)N1CCN(Cc2ccccc2)CC1	0.08	1.3
7	CSc1ccccc1NC(=S)Nc1cc(C)cc(C)c1	0.54	0.56
8	Cc1cc(C)c(C)c(SCC(=O)Nc2oc(C)c3c(C)n[nH]c(=O)c23)c1C	0.29	-1.2
9	COc1cc(C=O)ccc1OC(=O)c1cccnc1	0.06	-0.94
10	CCOC(=O)C1CCCN(C2CCN(Cc3nc(Cc4ccccc4)no3)CC2)C1 (centres undefined)	0.38	-1.3
11	Cc1ccc(C2CC2c2n[nH]c(=S)n2-c2cccc(C)c2)cc1 (centres undefined)	0.17	-0.52
12	Cc1ccc(C(=O)N2CCNC(=O)C2CC(=O)Nc2ccc(F)cc2)cc1C (centres undefined)	1.3	-0.61
13	Cc1cc(C)c2nc(N3CCCC(C(=O)N4CCC(C(N)=O)CC4)C3)sc2c1 (centres undefined)	1.4	0.16
14	O=C(CCS(=O)(=O)Cc1ccccc1)Nc1nnc(C(F)(F)F)s1	0.02	-1.8
15	C=CCSc1nc2ccccc2n2cnnc12	0.02	0.64
16	O=C(CNc1ccc(Cl)cc1)c1ccc(Br)cc1	0.07	0.42
17	CC1CCN(Cc2ccc(NC(=O)CC3Oc4ccccc4NC3=O)cc2)CC1 (centres undefined)	0.36	0.75
18	CCCCC(CC)CNC(=O)CCS(=O)(=O)c1cccc2nsnc12 (centres undefined)	0.88	0.04
19	CN(C)c1nc(N)nc(CSc2nnnn2-c2ccccc2)n1	0.52	-0.94
20	CCn1c(-c2csc(C(C)C)c2)n[nH]c1=S	0.84	-0.88
21	CC(=O)c1ccc(N2CCN(C(=S)Nc3cccc(Cl)c3)CC2)cc1	0.45	-0.31
22	Cc1ccc(S(=O)(=O)NCc2ccc(C(=O)NCCc3ccc(S(N)(=O)=O)cc3)cc2)cc1	2.3	0.59
23	CCOC(=O)C1=C(COC(=O)/C=C/c2cccc([N+](=O)[O-])c2)NC(=O)NC1C (centres undefined)	2.5	1.2
24	Cc1cccc(NC(=O)Cn2cc(C(=O)C3CC3)c3ccccc32)c1C	0.53	-0.18
25	CCOC(=O)C1CN(S(=O)(=O)c2ccc(C)cc2)c2cc(S(=O)(=O)CC)ccc2O1 (centres undefined)	0.1	0.81
26	Brc1ccc(-c2nnc3n2C2(CCCC2)Cc2ccccc2-3)o1	0.73	-0.35
27	CC(=O)c1c(C)[nH]c(C(=O)CN2C(=O)NC(C)(c3ccc4c(c3)OCCO4)C2=O)c1C (centres undefined)	2.2	-0.82
28	O=C(CCNc1n[nH]c(=O)[nH]c1=O)N/N=C\c1ccc(Br)cc1	0.62	-0.02
29	Cc1ccc(S(=O)(=O)N2CCCC2C(=O)NCc2ccc3c(c2)OCO3)cc1 (centres undefined)	1.2	-1.5
30	COc1ccc(OCc2nnc(SCC(=O)Nc3ccccc3Cl)o2)cc1	0.64	0.85
31	COc1cc(CNCCCN2CCOCC2)cc(Br)c1OCC(=O)N1CCCCC1	1.5	-1.1
32	CC(C)(C)NC(=O)CN1CCN(C(=O)CCl)CC1	0.05	0.94
33	CN(CCNC(=O)c1ccc(N2CCCC2=O)cc1)CCc1ccccc1	1.2	-0.02
34	O=C(Nc1ccccc1)c1cccc(S(=O)(=O)N2CCCCC2)c1	0.38	-0.23
35	CSC(=NCc1cccnc1)NS(=O)(=O)c1cccs1	0.08	-0.45
36	CCC(C)(C)C(=O)Nc1ncc(S(=O)(=O)c2ccc([N+](=O)[O-])cc2)s1	0.04	-0.72
37	CCCCCc1c(O)nc(SCCN(C)C)[nH]c1=O	1.1	-0.69
38	COc1ccc(C)cc1NC(=O)CSc1nnc(-c2cc3cccc(OC)c3o2)n1N	1.8	-0.2
39	CCN1CCN(S(=O)(=O)c2ccc(OC)c(NC(=O)c3ccccc3F)c2)CC1	1.5	-0.24
40	CC(C)(C)NC(=O)C(=O)NN=C1CCCCCC1	2.1	0.63

Screen by screen, as entered above:
Entries 33–40 in KCNQ2 enhance: 1.2, 0.38, 0.08, 0.04, 1.1, 1.8, 1.5, 2.1

Nos. 33 to 34 from above:
entry	structure	KCNQ2 enhance	KCNQ2 enhance baseline
33	CN(CCNC(=O)c1ccc(N2CCCC2=O)cc1)CCc1ccccc1	1.2	-0.02
34	O=C(Nc1ccccc1)c1cccc(S(=O)(=O)N2CCCCC2)c1	0.38	-0.23

Later entries:
entry	structure	KCNQ2 enhance	KCNQ2 enhance baseline
41	CCOc1ccc(NC(=O)CSc2nc(NS(=O)(=O)c3ccc(C)cc3)cc(=O)[nH]2)cc1	4.5	-0.11
42	O=C(Nc1ccc(Nc2ccccc2)cc1)c1ccc(Cl)cc1	1.1	-1.1
43	COc1ccc(Nc2oc(COc3ccc(Cl)cc3)nc2C#N)cc1	0.02	-0.18
44	CC1=C(C(=O)OC(C)C)C(c2ccc(Br)s2)NC(=O)N1C (centres undefined)	2.2	-1.1
45	Cc1ccc(CSc2nnc(-c3ccco3)n2N)cc1	2.6	-0.59
46	O=C(/C=C/c1ccccc1)NC(=S)Nc1ccccc1C(=O)NC1CCCCC1	0.01	-0.56
47	C/C(=N\NC(=S)NCC(C)(C)C)c1cc(F)cc(F)c1O	0.25	-0.03
48	COCCNC(=O)/C(C#N)=C/c1c(N2CCN(C)CC2)nc2c(C)cccn2c1=O	0.85	0.44
49	N#Cc1ccc(COC(=O)CC(NC(N)=O)c2ccc(Cl)cc2)cc1 (centres undefined)	0.49	0.72
50	CCCc1cc(=O)oc2cc(C)cc(OCC(=O)Nc3cccnc3)c12	0.78	-0.1
51	Cc1ccsc1C(=O)NCc1ccc(F)cc1	0.02	0.36
52	COc1ccc(OC)c(S(=O)(=O)N2CCC(C(=O)Nc3cc(C)ccc3C)CC2)c1	0.3	-3
53	C=CCN1C(=O)c2ccc(C(=O)N(C)CC(=O)Nc3ccc(OCC)c(OCC)c3)cc2C1=O	0.13	-0.17
54	Cc1cccc(OCC(O)CN2CCOCC2)c1 (centres undefined)	2.5	0.18
55	O=C(C1CC1)N1CCc2cc(S(=O)(=O)N3CCOCC3)ccc21	0.37	-0.29
56	Cc1cc2ncn(-c3ncnc4sc(C)c(C)c34)c2cc1C	1.9	-0.71
57	O=C(Nc1ccc(NC(=O)C2CC2)nc1)c1cnccn1	0.68	0.15
58	Cc1ccnc(NC(=O)c2cccs2)c1	1.3	0.56
59	Cc1cc(C)nc(Sc2c(C)nn(-c3ccccc3)c2C)n1	0.46	-1.8
60	Cc1ccc(C(=O)c2oc3nc(C)cc(C)c3c2N)cc1	0.97	-0.01
61	CCN1CCN(CCNC(=O)c2cn(C(C)c3ccccc3F)nn2)CC1 (centres undefined)	2.1	-0.05
62	CC(=O)C1C(=O)c2c(cccc2[N+](=O)[O-])C1=Nc1ccccc1C (centres undefined)	0.07	-0.97
63	Cn1c(SCC(=O)NC2(C#N)CCCCC2)nnc1-c1cccnc1	0.22	0.73
64	COc1ccccc1-n1c(CNC(=O)c2ccc(S(=O)(=O)N3CCCCC3)cc2)n[nH]c1=S	1.1	-2
65	COc1ccc(OCCN2CCOCC2)cc1	2.2	-1.7
66	COc1ccc(CCNC(=O)c2cccc(NC(=O)CC3SC(N4CCCCC4)=NC3=O)c2)cc1OC (centres undefined)	1.9	-3.1
67	Cc1cccc(C)c1NC(=O)C(C)N (centres undefined)	0.08	0.55
68	CC(C)(C)OC(=O)N1CCC(c2c(C(=O)O)cnn2-c2ccccc2)CC1	0.42	-0.07
69	COc1ccccc1CNC(=S)Nc1ccc(F)cc1	1.8	-0.29
70	Cn1ncc(C(=O)N=S(C)(=O)c2ccccc2)c1[N+](=O)[O-] (centres undefined)	0.08	3
71	Cc1cc([N+](=O)[O-])cc([N+](=O)[O-])c1NCC(C)C	0.34	-1.3
72	Cc1nnc(C)n1N1C(=O)c2cccc3cccc(c23)C1=O	0.09	1
73	N#C/C(=C\c1ccc([N+](=O)[O-])o1)c1nc2ccccc2[nH]1	1.1	-1.9
74	O=C(CCCn1c(=S)[nH]c2ccccc2c1=O)NCc1ccco1	0.49	-1.3
75	N/C(=N\OC(=O)Cc1ccccc1)c1ccc(Br)cc1	0.14	0.84
76	COC(=O)c1cccc(NC(=O)CSc2nncn2-c2ccccn2)c1	0.22	-0.26
77	CCOCCOC(=O)c1ccc(-n2cncn2)nc1	0.83	-0.36
78	CCOC(=O)c1cnc2cc(F)c(F)cc2c1N1CCN(C)CC1	0.13	-0.58
79	CC(C)NC(=O)c1ccccc1NC(=O)C1CC(=O)N(C(C)C)C1 (centres undefined)	0.86	-0.57
80	O=C(Nc1cc(S(=O)(=O)N2CCOCC2)ccc1Cl)c1cc(=O)c2ccccc2o1	1	0
81	CCCCn1c(=O)c(CCC(=O)O)nc2ccccc21	0.03	-2.1
82	O=C(CCNS(=O)(=O)c1ccc(Cl)cc1)N1CCC2(O)CCCCC2C1 (centres undefined)	0.34	-0.14
83	Cc1cccc(NC(=S)NC(=O)c2ccc(Br)o2)c1C	8.4*	-0.95*
84	CN(C)CC[C@@H](c1ccc(Cl)cc1)c1ccccn1	0.89	-1.6
85	CCCn1nc(C(=O)NNC(=O)CCOc2ccccc2OCC)c2ccccc2c1=O	0.02	1.6
86	C(=N\n1cnc2ccccc21)/c1cccnc1	1.2	1.6
87	Cc1ccc(S(=O)(=O)N2CCOCC2)cc1NC(=O)COC(=O)CCOc1ccc(C(C)(C)C)cc1	0.59	0.02
88	O=C(CNC(=O)c1ccco1)NCc1nc2ccccc2[nH]1	0.7	0.16
89	Cc1nc2sccn2c(=O)c1S(=O)(=O)N1CCN(c2ccccc2)CC1	1.2	1.3
90	Cc1ccc(NC(=O)CCS(=O)(=O)c2cc3c(cc2Cl)NC(=O)CO3)cc1	0.11	0.44
91	CC(OC(=O)c1ccc2c(=O)n3c(nc2c1)CCCCC3)C(=O)Nc1ccc(Cl)cn1 (centres undefined)	2.1	0.01
92	O=C(NNC(=O)c1cccnc1)NC1CCCCC1	0.07	-0.25
93	CCc1ccc(-c2nc3ccc(Br)cc3c(C(=O)O)c2C)s1	1.3	0.3
94	O=c1cc(-c2ccccc2)[nH]c2ccc(F)cc12	0.05	0.76
95	COc1ccc(S(=O)(=O)c2ccc(OC)c(OC)c2)cc1OC	1.3	-1.6
96	O=C(c1ccccc1)N(Nc1ccccc1)c1ccccc1	0.63	0.01

The results go on.
entry	structure	KCNQ2 enhance	KCNQ2 enhance baseline
97	CCOC(=O)CCn1c(=O)c2c(nc(Br)n2Cc2ccccc2)n(C)c1=O	1.6	-3.6
98	CC(=O)C1=C(O)C(=O)N(CCCn2ccnc2)C1c1ccc(Br)cc1 (centres undefined)	0.44	1.8
99	O=C1CN(C(=O)COC(=O)c2cc(S(=O)(=O)N3CCOCC3)ccc2Cl)c2ccccc2N1	0.13	-0.6
100	CN(C(=O)c1ccccc1Cl)c1ccccc1	0.02	0.51
101	NC(=O)CC(NC(=O)Cc1ccc(Br)cc1)c1ccc(NC2CCCCCC2)c([N+](=O)[O-])c1 (centres undefined)	0.28	-0.24
102	Cc1cc(C)nc(N2CCN(C(=O)c3ccc(S(=O)(=O)N4CCCCCC4)cc3)CC2)n1	0.08	1.3
103	CCCCN(CC)CCCNC(=O)c1cn(C)c2ccc(S(=O)(=O)N(C)C3CCCCC3)cc2c1=O	1.4	-0.94
104	CC(NC(=O)c1ccnc(C(C)(C)C)c1)c1ccccc1 (centres undefined)	2.3	-0.67
105	Clc1ccc(CN2CCc3c([nH]c4ccccc34)C2)cc1Cl	1.2	-2.2
106	Cc1c(CCC(=O)O)c(=O)oc2c(C)c(OCc3ccccc3Cl)ccc12	1.3	1.8
107	O=C(Nc1cc([N+](=O)[O-])ccc1F)c1ccc2c(c1)OCCO2	0.5	-0.54
108	COCCCN(C)C1CCN(C(=O)Nc2ccc(F)cc2)CC1	0.88	0.49
109	CNC(C)C#Cc1ccc2sc3cccc(OC)c3c(=O)c2c1 (centres undefined)	0.69	0.14
110	CCCCCCC(O)(c1ccccc1)C(CN1CCOCC1)c1ccccc1 (centres undefined)	0.4	0.38
111	CCC[N+](CC#Cc1ccccc1)(CCC)CC(=O)OC	2.6	-0.64
112	CCN(CC)C(=O)Cn1cc(S(=O)(=O)CC(=O)NCc2ccc(F)cc2)c2ccccc21	0.89	-0.92
